# nsP2pro primary: Primary qHTS for inhibitors of NSP2Pro chikungunya virus (CHIKV); hit rate 1.1% among 31,000; Potency, µM (series often up to 24.9 µM), inactives show top-dose activity change, negative = inhibition, hits mostly inhibitors; FRET peptide cleavage, nsP2pro, fluorescence 1 h; active means well fitted inhibition curve with a large enough effect; inconclusive means small, poorly fitted or top-dose-only effect; inactive means no such curve, though single readings can be large or run the other way; further: nearly all actives have a fitted effect of over 60% in size; a reference inhibitor and vehicle were the controls
# Target sequence (Q8JUX6 whole entry, looked up): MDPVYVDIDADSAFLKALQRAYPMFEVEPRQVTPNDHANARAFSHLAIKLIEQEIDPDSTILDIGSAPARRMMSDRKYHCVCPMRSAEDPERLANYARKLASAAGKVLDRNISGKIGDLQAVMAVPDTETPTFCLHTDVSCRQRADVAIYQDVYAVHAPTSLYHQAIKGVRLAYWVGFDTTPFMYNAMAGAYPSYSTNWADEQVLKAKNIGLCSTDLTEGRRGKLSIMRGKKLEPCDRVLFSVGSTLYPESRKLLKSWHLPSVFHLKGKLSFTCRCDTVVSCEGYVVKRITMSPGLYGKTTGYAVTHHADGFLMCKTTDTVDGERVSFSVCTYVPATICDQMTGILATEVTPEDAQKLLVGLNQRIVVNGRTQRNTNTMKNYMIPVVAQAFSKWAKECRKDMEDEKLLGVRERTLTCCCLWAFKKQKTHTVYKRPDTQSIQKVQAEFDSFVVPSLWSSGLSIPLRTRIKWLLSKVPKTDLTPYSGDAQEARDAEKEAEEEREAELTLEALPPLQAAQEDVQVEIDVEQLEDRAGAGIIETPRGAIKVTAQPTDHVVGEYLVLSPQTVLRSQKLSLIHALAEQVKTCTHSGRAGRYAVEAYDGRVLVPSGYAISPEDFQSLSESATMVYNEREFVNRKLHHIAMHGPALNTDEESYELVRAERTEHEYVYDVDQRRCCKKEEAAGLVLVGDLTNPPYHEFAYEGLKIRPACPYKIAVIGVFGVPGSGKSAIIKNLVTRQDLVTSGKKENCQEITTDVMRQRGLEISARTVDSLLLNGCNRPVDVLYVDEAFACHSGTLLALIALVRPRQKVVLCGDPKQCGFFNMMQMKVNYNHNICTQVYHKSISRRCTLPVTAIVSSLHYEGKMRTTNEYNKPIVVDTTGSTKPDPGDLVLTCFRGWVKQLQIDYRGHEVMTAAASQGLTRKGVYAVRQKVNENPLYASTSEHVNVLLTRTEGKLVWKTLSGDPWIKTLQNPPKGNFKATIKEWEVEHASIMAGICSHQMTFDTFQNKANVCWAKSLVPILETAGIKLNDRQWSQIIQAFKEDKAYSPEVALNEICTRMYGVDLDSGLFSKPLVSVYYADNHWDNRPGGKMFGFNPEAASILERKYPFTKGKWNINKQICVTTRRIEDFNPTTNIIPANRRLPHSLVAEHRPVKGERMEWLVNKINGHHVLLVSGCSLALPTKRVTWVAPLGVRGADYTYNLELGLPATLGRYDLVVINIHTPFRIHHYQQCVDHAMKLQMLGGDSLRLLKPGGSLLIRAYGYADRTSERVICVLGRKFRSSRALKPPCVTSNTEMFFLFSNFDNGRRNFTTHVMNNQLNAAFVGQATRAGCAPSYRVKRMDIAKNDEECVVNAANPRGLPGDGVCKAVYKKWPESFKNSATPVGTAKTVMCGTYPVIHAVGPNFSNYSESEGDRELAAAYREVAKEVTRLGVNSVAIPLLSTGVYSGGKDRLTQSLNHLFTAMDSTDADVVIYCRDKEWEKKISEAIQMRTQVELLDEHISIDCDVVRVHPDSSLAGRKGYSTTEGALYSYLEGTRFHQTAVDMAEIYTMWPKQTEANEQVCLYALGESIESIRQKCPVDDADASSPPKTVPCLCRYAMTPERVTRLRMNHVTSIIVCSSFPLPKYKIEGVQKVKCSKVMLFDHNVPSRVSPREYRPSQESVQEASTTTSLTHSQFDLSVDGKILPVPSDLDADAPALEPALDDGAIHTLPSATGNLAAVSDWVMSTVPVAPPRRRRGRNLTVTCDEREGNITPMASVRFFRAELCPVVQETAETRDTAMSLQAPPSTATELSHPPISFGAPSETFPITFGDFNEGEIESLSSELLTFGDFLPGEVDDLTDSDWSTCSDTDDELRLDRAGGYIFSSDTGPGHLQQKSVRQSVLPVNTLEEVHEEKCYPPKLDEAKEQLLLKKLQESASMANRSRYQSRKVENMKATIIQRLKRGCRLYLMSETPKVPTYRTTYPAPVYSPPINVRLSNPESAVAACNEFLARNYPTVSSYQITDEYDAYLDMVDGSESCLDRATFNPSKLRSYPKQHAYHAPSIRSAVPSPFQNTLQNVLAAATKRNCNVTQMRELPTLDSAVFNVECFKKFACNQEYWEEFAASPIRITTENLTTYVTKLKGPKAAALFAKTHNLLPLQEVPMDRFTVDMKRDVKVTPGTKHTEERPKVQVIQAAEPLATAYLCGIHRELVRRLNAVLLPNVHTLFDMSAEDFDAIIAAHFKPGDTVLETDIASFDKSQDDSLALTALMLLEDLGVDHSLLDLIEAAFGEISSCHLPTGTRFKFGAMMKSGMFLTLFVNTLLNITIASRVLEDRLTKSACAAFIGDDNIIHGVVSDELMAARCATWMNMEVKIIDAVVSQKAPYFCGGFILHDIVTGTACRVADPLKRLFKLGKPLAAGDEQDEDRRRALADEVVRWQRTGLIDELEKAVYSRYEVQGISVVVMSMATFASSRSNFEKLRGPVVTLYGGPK
# Numbers without * were called inactive; i = inactive; ? = inconclusive; & = joins results of further samples; [ ] = remark or other dose. On the % scale 0 is the no-effect control and ±100 the full control effect; potency means the concentration at half of the fitted maximal effect. These rows are one share of the data; count on the stated rates, not on these rows.
SMILES,nsP2pro primary
COCCCNC(=O)C1(CCO)CCN(c2ncccn2)C1 (configuration not stated),-3%
C/C(=C\CC[C@@H](C)[C@H]1CC(O)[C@@]2(C)C3CC[C@H]4C(C)(C)[C@@H](OC5OCC(O)C(O)C5OC5OC(CO)C(O)C(O)C5O)CC[C@@]45C[C@@]35CC(O)[C@]12C)C(=O)O (some centres not stated),-7%[10 µM]
CCOC(CN1CCN(CC(C)C(=O)c2ccccc2)CC1)c1ccccc1 (configuration not stated),-6%
COc1ccc(N2CCN(C(=O)C3CCCN(S(=O)(=O)c4ccc5c(c4)CCCN5C(C)=O)C3)CC2)cc1 (configuration not stated),-15%
CN(C(=O)c1ccccc1)C1CCOc2ccccc21 (configuration not stated),-12%[39.2 µM]
COC(=O)c1cc(OC)cc(OC)c1C(=O)c1c(OC)cc2c(c1O)C1CCCC(C)(O2)O1 (configuration not stated),-10%[10 µM]
CC(C)NC(=O)NC[C@H]1C[C@@H]2CCN1C[C@@H]2CN1CCSCC1,i
O=C1OCC2(CCN(Cc3c[nH]c4ccccc34)C2)N1Cc1ccccc1 (configuration not stated),4%[39.2 µM]
COc1ccc(CNCCCSc2nnnn2-c2ccccc2)cc1,-4%
Cc1cc(O)c(CN2CCN(c3ccccc3)CC2)c2oc(=O)cc(C)c12,-26%
CC1CCC2C(C)(C)C(O)CCC2(C)C12Cc1c(O)cc3c(c1O2)CN(C(CCC(N)=O)C(=O)O)C3=O (configuration not stated),-18%[10 µM]
CNC(=O)N1CCC(C2CCN(C(=O)c3cnccn3)C2)CC1 (configuration not stated),3%

# Sorted by formula weight (smallest number first): some entries from above.
SMILES,nsP2pro primary
COCCCNC(=O)C1(CCO)CCN(c2ncccn2)C1 (configuration not stated),-3%
O=C1OCC2(CCN(Cc3c[nH]c4ccccc34)C2)N1Cc1ccccc1 (configuration not stated),4%[39.2 µM]
CC1CCC2C(C)(C)C(O)CCC2(C)C12Cc1c(O)cc3c(c1O2)CN(C(CCC(N)=O)C(=O)O)C3=O (configuration not stated),-18%[10 µM]
COc1ccc(N2CCN(C(=O)C3CCCN(S(=O)(=O)c4ccc5c(c4)CCCN5C(C)=O)C3)CC2)cc1 (configuration not stated),-15%

# Further entries follow:
SMILES,nsP2pro primary
O=C(O)CCc1ccccc1,?
CSc1cccc(NC(=O)C2CCN(c3nc4ccccc4[nH]3)CC2)c1,?
CCOc1ccc(CCNC(=O)c2cc3ncccc3n2Cc2cccc(C)c2)cc1OCC,i
O=S(=O)(c1ccc(-n2cnnn2)cc1)N1CCN(c2ccccc2F)CC1,-27%
Cc1nc(-c2ccccc2)sc1-c1ccc(SCC(=O)NCc2ccc(Cl)cc2)nn1,-23%
CC(C)(C)OC(=O)N1CCC(c2c(C(=O)O)cnn2-c2ccc(F)cc2F)CC1,9%
CC(C)[C@H]1CN(CCS(C)(=O)=O)C[C@@H]1NC(=O)c1ccco1,?
Cc1ccc(Nc2cc(=O)[nH]c(=O)[nH]2)cc1C,-8%
CC(=O)Nc1sc2cnccc2c1-c1nc2ccccc2s1,-6%
CCOC(=O)N1CCN(Cc2nc3cc(NC(C)=O)ccc3n2C(C)C)CC1,?
NC(=O)NCC(=O)N1CCc2cc(S(=O)(=O)NCc3cccs3)ccc2C1,i
Cc1ccccc1C(=O)Nc1nnc(SCc2cc(=O)c3c(C)ccc(C)c3[nH]2)s1,-7%

# A few values from the entries so far:
# Cc1ccccc1C(=O)Nc1nnc(SCc2cc(=O)c3c(C)ccc(C)c3[nH]2)s1 in nsP2pro primary reads -7%
# C/C(=C\CC[C@@H](C)[C@H]1CC(O)[C@@]2(C)C3CC[C@H]4C(C)(C)[C@@H](OC5OCC(O)C(O)C5OC5OC(CO)C(O)C(O)C5O)CC[C@@]45C[C@@]35CC(O)[C@]12C)C(=O)O (some centres not stated) in nsP2pro primary reads -7%[10 µM]
# O=C1OCC2(CCN(Cc3c[nH]c4ccccc34)C2)N1Cc1ccccc1 (configuration not stated) in nsP2pro primary reads 4%[39.2 µM]

# Remaining list, next part.
SMILES,nsP2pro primary
C[N+]1(C)C2CC[C@H]1CC(OC(=O)C(O)c1ccccc1)C2 (some centres not stated),-2%
COc1ccc(CNC(=O)CSc2ncc3c(n2)-c2cc(Cl)ccc2N(C)S3(=O)=O)cc1,-9%
O=C(NCc1ccc(F)cc1)n1c(-c2ccccc2)c(P(=S)(c2ccccc2)c2ccccc2)c2ccccc21,-6%
C[C@@H]1CC2=CC(=O)CC[C@@H]2[C@H]2CC[C@@]3(C)[C@@H](CC[C@]3(C)O)[C@@H]21,-4%
Cc1nc(CNc2ncnc3ccc(-c4sc(C)nc4C)cc23)cs1,-1%
CCN1CCN(C(=O)N[C@@H](C(=O)N[C@@H]2C(=O)N3[C@@H]2SC(C)(C)[C@@H]3C(=O)O)c2ccccc2)C(=O)C1=O,?
Cc1cc(C)c(NC(=O)C2CCN(C(=O)N3CCOc4ccccc43)CC2)c(C)c1,-28%
O=C(CCCCCCSc1ccc2ccccc2c1)NO,29%
CC(=O)CCC1C(=O)N(c2ccccc2)N(c2ccccc2)C1=O,5%
CCC1CCCCN1C(=O)c1c[nH]c2ccc(S(=O)(=O)Nc3cccc(OC)c3)cc2c1=O (configuration not stated),-6%
COC(=O)c1sccc1S(=O)(=O)N1CCN(c2cccc(C)c2)C(C)C1 (configuration not stated),-7%
CCOC(=O)C1CCN(C(=O)C(C)(C)NC(=O)Nc2ccc(C#N)cc2)CC1,1%
O=C(CN1C(=O)COc2ccc(S(=O)(=O)N3CCCC3)cc21)N1CCN(c2ccc(F)cc2)CC1,-18%
Cc1ccc(Oc2nc3ccccn3c(=O)c2/C=C(\C#N)c2nc3ccccc3s2)c(C)c1,?
c1ccc2c(Nc3nnc(-c4ccncc4)s3)cccc2c1,28%
O=S(=O)(c1ccc(C2CCCCC2)cc1)N1CCN(c2ccc(Cl)c(Cl)c2)CC1,-2%
Cc1cc(C)nc(NC(=S)N2CCN(c3ccc(S(C)(=O)=O)cc3F)CC2)c1,0%
CCOc1ccccc1NC(=O)C1CCCN1S(=O)(=O)c1ccc2nc(-c3ccccc3)[nH]c2c1 (configuration not stated),-11%
CCN(C(=O)CSc1nc2n[nH]c(C)c2c(=N)n1-c1cccc(OC)c1)c1cccc(C)c1,26%
O=C(c1ccc(Cn2ccn3nc4c(c3c2=O)CCCC4)cc1)N1CCN(c2ccccn2)CC1,-8%
Cn1ccnc1CN1CCN(c2nccc(-c3cccnc3)n2)CC1,i
CC(=O)N1CC(CO)C2(CCN(C(=O)c3nccc4ccccc34)CC2)C1 (configuration not stated),-27%
O=C1CCc2cc(S(=O)(=O)Nc3ccc(Cl)c(Cl)c3)ccc2N1,-4%
CC1=C(C(=O)Nc2ccc(C)cc2C)C(c2cccs2)n2nc(SCc3ccccc3Cl)nc2N1 (configuration not stated),?
CC(C)c1ccc(CC(=O)N2CCC[C@@H](c3cccc(OC(C)(C)C(=O)O)c3)C2)cc1,6%
O=C1CCN(S(=O)(=O)c2ccccc2)CCCN(C(=O)c2c[nH]c3ccccc23)CCN1,-5%
COc1ccc(-c2ccc(C(=O)NCc3cccc(Cl)c3)cc2)nn1,0%
COc1cccc(CCNC(=O)c2c(O)nc3c(C)cccn3c2=O)c1,-9%
CO[C@@]1(NC(=O)CSC[C@@H](N)C(=O)O)C(=O)N2C(C(=O)O)=C(CSc3nnnn3C)CS[C@@H]21,-20%
O=C1CCC2(CCN1Cc1ccccc1)CCN(C(=O)c1ccccc1F)CC2,i
C=CCNC(=O)C[C@@H]1CCN(C(=O)c2ccccc2)C[C@@H]1CC,-16%[39.2 µM]
CCOc1ccc(CNS(=O)(=O)c2ccc3c(c2)CCCN3C(C)=O)cc1OC,-19%
CN(Cc1ccc(-c2ccccc2)cc1)c1nc(-c2ccccc2C(F)(F)F)nc2ccccc12,-4%
Cc1cccc2c1-c1sc(C(=O)NCCCN3CCN(c4ccccc4F)CC3)cc1CO2,1%
C=CCc1cccc(CNc2ccc(S(=O)(=O)Nc3nccs3)cc2)c1O,i
CCC[C@H]1CN(C(=O)CCc2ccccc2C)C[C@@H]1N,i
O=C([C@H](Cc1ccc(O[S+](=O)([O-])c2cccc3cccnc23)cc1)N[S+](=O)([O-])c1ccccn1)N1CCN(c2ccccc2)CC1,i
CCNC(=O)C1CCCN(c2nn3cc(-c4ccc(C)cc4)nc3s2)C1 (configuration not stated),-9%
Cc1ccc(-n2ncc(C(=O)NCCN3CCCC3)c2C2CCN(C(=O)OC(C)(C)C)CC2)cc1C,10%
CNC(=O)c1cc2n(n1)CCCN(Cc1ccc(F)cc1)C2=O,-5%
Cn1nc(C(=O)NC2CC2)c2c1CN(C(=O)Cc1cccc(F)c1)C2,-10%
Cc1cc(C)nc(NC(=S)N2CCN(c3nc4ccccc4o3)CC2)c1,i
O=C1COCC2(CN(c3ccc(C(F)(F)F)cn3)C2)CN1c1ccc(F)cc1,-11%[39.2 µM]
Nc1ccc(N=Nc2ccccc2)c(N)n1,-9%&-8%
COc1cc(NS(=O)(=O)c2ccc(N)cc2)ncn1,5%
COc1ccc(N2CC3CCC(C2)N3Cc2cccc(Cl)c2)cc1,-24%
c1ccc2c(c1)Sc1ccccc1N2CC1CN2CCC1CC2 (configuration not stated),14%
O=C(C1CCC(Cn2c(=O)c3sccc3n(Cc3ccc(F)cc3)c2=O)CC1)N1CCOCC1 (configuration not stated),-13%
CCOC(=O)N1CCc2c(sc3c2c(=O)n(-c2ccc(CC)cc2)c(=O)n3CC(=O)Nc2ccc(C)cc2)C1,-7%
CCOC(=O)CNc1nc(Oc2ccc(=O)n(C)n2)nc(N(CC)CC)n1,-21%
CCCS(=O)c1ccc2nc(NC(=O)OC)[nH]c2c1 (configuration not stated),7%
NC(=O)c1cccc(-c2cccc(OC(=O)NC3CCCCC3)c2)c1,-15%
COc1ccc(C)cc1NC(=O)CN1C(=O)COc2ccc(S(=O)(=O)N3CCC(C)CC3)cc21,-14%
COc1ccc(OC)c(CCNC(=O)c2cc3cccc4c3n2CCS4)c1,-17%
CC(CNC(=O)c1ccc2c(c1)nc1n2CCCCC1)c1ccccc1 (configuration not stated),-6%
COc1cccc(C(=O)CN2CCN(S(=O)(=O)c3ccc(Cl)cc3)CC2)c1,?
O=C(O)c1cccc(S(=O)(=O)N2CCc3ccccc3C2)c1,?
CC[C@@]1(O)CCN(C(=O)c2ccc(CSc3ccccc3)o2)C[C@H]1O,-27%
COC(=O)C[C@H]1C(C)(C)[C@H](OC(C)=O)C2CC3=C4CC(=O)O[C@@H](c5ccoc5)[C@]4(C)CCC3[C@@]1(C)C2=O (some centres not stated),-2%[10 µM]
COc1ccc(C(=O)NCc2cc(C(C)C)no2)cc1OC1CCN(C)CC1,-10%
# Later entries.
SMILES,nsP2pro primary
O=C(Cn1nc(-c2ccc3c(c2)OCO3)ccc1=O)NCCc1ccccc1,i
O=c1c2ccc(Cl)cc2nc2sc(Nc3ccc4c(c3)CCC4)nn12,i
CCCCN(Cc1ccccc1)S(=O)(=O)c1ccc2c(c1)CCN2C(=O)C1CCC1,-20%
CCn1c(=N)n(CCOc2ccc(Br)cc2)c2ccccc21,0%
NC(=O)OCC(N)Cc1ccccc1 (configuration not stated),-6%
O=C(Nc1cc2c(cc1C(=O)c1ccccc1Cl)OCCO2)c1ccc(Br)cc1,-17%
N#CC(c1ccc(Cl)cc1)c1c(Cl)cc(-n2ncc(=O)[nH]c2=O)cc1Cl (configuration not stated),52%[activator]
COC(=O)CCC(NC(=O)C(CC(=O)OC)NC(=O)OCc1ccccc1)C(=O)NC(C(=O)NC(CC(=O)OC)C(=O)CF)C(C)C (configuration not stated),-11%
COc1c(Cl)cc(Cl)cc1/C=C(\C#N)c1nc2ccccc2[nH]1,-4%
O=C([C@@H]1C[C@@H]2C=C[C@H]1C2)N1CCc2c(nc(-c3cccnc3)[nH]c2=O)C1,-1%
O=C(NCCCCc1ccccc1)C1CCN(c2nc(-c3ccc(Br)cc3)cs2)CC1,i
COc1ccc(-n2ncc3c2ncn2nc(COc4ccc(Cl)cc4)nc32)cc1,-18%
CC(=O)Nc1cccc(OC2=NS(=O)(=O)c3ccccc32)c1,i
Cc1ccc(-c2cc(C(=O)Nc3ccc(-c4nn[nH]n4)cc3)c3ccccc3n2)cc1C,i
Cc1ccc(-c2ccc(CNc3nc(-c4ccccc4C(C)C)nc4ccccc34)cc2)cn1,3%
N#Cc1ccc(Nc2nc(-c3ccc(O)cc3O)cs2)cc1C(F)(F)F,?
COc1ccc(/C=C(/C#N)c2nc(-c3ccc(-c4ccccc4)cc3)cs2)cc1OC,-12%
CNC(=O)CCn1ncc2cc(OCc3ccccc3-c3ccc(F)c(Cl)c3)ccc21,i
CCn1ccnc1CN(C)Cc1cccc(OCC(O)CN(C)C2CCCCC2)c1 (configuration not stated),i
O=C1CO[C@H]2CN(Cc3ccncc3)C[C@H]2N1Cc1ccc(F)cc1,-24%[39.2 µM]
O[C@]12CCNC[C@H]1CN(Cc1cccc(N3CCOCC3)c1)CC2,-5%
CN(Cc1ccccc1)c1nc2c(S(=O)(=O)c3cccc(Cl)c3)nnn2c2ccsc12,-14%
CCCc1nc2c(C)cc(-c3nc4ccccc4n3C)cc2n1Cc1ccc(-c2ccccc2C(=O)O)cc1,-3%&6%

# Of the compounds above, 8 contain a thiophene ring, fused or not.
SMILES,nsP2pro primary
CC(=O)Nc1sc2cnccc2c1-c1nc2ccccc2s1,-6%
NC(=O)NCC(=O)N1CCc2cc(S(=O)(=O)NCc3cccs3)ccc2C1,i
COC(=O)c1sccc1S(=O)(=O)N1CCN(c2cccc(C)c2)C(C)C1 (configuration not stated),-7%
CC1=C(C(=O)Nc2ccc(C)cc2C)C(c2cccs2)n2nc(SCc3ccccc3Cl)nc2N1 (configuration not stated),?
Cc1cccc2c1-c1sc(C(=O)NCCCN3CCN(c4ccccc4F)CC3)cc1CO2,1%
O=C(C1CCC(Cn2c(=O)c3sccc3n(Cc3ccc(F)cc3)c2=O)CC1)N1CCOCC1 (configuration not stated),-13%
CCOC(=O)N1CCc2c(sc3c2c(=O)n(-c2ccc(CC)cc2)c(=O)n3CC(=O)Nc2ccc(C)cc2)C1,-7%
CN(Cc1ccccc1)c1nc2c(S(=O)(=O)c3cccc(Cl)c3)nnn2c2ccsc12,-14%

# Screening results (PubChem BioAssay)
